CSC inhib: cancer stem cell viability inhibitors, primary screen, luminescence | cancer stem cell-like cells viability | inhibition, % at 7.5 µM | 1.1% of 300,000 active;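 active = mean at 75% or more and at least half the replicates too; inconclusive = mean and replicates disagree; tested in HMLE shEcad cells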;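 note: 0% = median of negative and 100% = median of positive control wells; the first replicate is given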
HIV Env fusion: inhibitors of HIV-1 Env-driven cell-cell fusion, primary screen, HeLa-JRFL effector, CEM21 target cells, luciferase; inhibition, % at 12.3 µM; 1.1% of 360,000 active;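 active = mean replicate inhibition score of at least 50 and every replicate individually at or above 50; inconclusive = only one of the two criteria met; inactive = mean below 50 and not all replicates reaching 50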;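 note: 0% = plate neutral controls and 100% = maraviroc near 300 nM; one replicate is shown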
eIF4H FP inh: human eIF4H binding inhibitors, primary screen, translation initiation inhibitor project, biochemical, uHTS, fluorescence polarization; 0.94% of 290,000 active; inhibition, % at 35 µM; Eukaryotic translation initiation factor 4H (Homo sapiens), Q15056; eIF4H fluorescence polarization binding assay;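 active = 50% or more with normal probe brightness, or confirmed in later tests; inconclusive = above 50% with abnormal brightness, or retests that disagree; inactive = below 50% or failed in later tests; about a fifth of its hits are not listed in these tables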;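 note: calls also rest on retests at 20 µM and on dose response follow-up; 0% = protein and probe with vehicle and 100% = probe without protein; strong numbers were not always called active; many hits fall short of the cut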
Yeast UUG start: modulators of yeast start codon fidelity, primary screen, whole organism, S. cerevisiae, single point, plate reader. S. cerevisiae UUG-firefly luciferase reporter, luminescence/redox ratio. activity score, % at 18.7 µM. 0.13% of 350,000 active;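 active = replicate mean at a twofold rise or more, about +100% in these data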;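 note: firefly luciferase made from a UUG start codon reports start codon fidelity; reporter light over untreated wells divided by growth signal over untreated wells; some hits fall short of that in this replicate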
PABP polyA inh: PABP poly(A) RNA binding inhibitors, primary screen, biochemical, fluorescence polarization, uHTS | Polyadenylate-binding protein 1 (Homo sapiens), P11940 | 1% of 290,000 active | AID 2014, 2009 | inhibition, % at 35 µM;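 active = 50% or more with normal probe brightness, or confirmed in later tests; inconclusive = above 50% with abnormal brightness, or retests that disagree; inactive = below 50% or failed in later tests; about a fifth of its hits are not listed in these tables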;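 note: calls also rest on retests at 20 µM and on dose response follow-up; controls were probe without protein and protein plus probe with vehicle; some compounds called inactive have numbers as strong as hits; many hits fall short of the cut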
Target sequence (P11940 whole entry, looked up): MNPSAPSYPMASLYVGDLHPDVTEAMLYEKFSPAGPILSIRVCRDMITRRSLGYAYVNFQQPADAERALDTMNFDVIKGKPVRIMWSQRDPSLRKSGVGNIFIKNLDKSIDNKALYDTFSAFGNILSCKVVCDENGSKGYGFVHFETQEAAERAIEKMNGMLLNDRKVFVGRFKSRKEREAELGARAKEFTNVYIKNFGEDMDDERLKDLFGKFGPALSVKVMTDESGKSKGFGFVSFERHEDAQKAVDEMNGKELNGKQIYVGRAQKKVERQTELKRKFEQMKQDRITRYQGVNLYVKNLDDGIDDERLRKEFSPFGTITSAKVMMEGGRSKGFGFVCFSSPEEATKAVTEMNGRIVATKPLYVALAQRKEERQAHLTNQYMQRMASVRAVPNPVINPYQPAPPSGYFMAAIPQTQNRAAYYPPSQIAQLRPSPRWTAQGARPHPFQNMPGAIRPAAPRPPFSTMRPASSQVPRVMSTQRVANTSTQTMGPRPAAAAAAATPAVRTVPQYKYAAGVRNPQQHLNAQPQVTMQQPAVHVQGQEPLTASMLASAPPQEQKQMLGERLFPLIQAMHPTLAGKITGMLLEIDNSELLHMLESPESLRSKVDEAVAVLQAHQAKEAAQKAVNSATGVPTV
Rce1 inhib: yeast Rce1p protease inhibitors, primary screen, biochemical, fluorescence, cell-free homogeneous; CAAX prenyl protease 2 (Saccharomyces cerevisiae (strain ATCC 204508 / S288c)), Q03530; yeast membranes, quenched prenylated peptide cleavage fluorescence; calls only; 0.27% of 290,000 active;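 active = fall in fluorescence gain of 50% or more versus controls, with final raw signal at or below 3038400; inconclusive = same 50% fall but final raw signal above 3038400; inactive = fall in fluorescence gain under 50%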;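 note: plate controls were neutral control wells for no effect and wells lacking membranes for full effect; tested at 10 µM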
MT1-MMP act inh: blockers of MT1-MMP proenzyme processing, primary screen, HT1080 RFP-PRO-GFP cells, GFP/RFP fluorescence; 0.061% of 360,000 active; GFP/RFP ratio change, % at 20 µM; GFP/RFP ratio fluorescence, overnight; percent of plate control window, DMSO zero; Matrix metalloproteinase-14 (Homo sapiens), P50281;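 active = GFP/RFP ratio change of at least 30% with cell ATP level not reduced by more than half and red fluorescence within 50% of control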; note: strong numbers were not always called active
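Read-out: GFP/RFP fluorescence ratio; Test system: RFP-PRO-GFP reporter HT1080 cells; Compound dosing: single-point 20 µM compound, 1% DMSO; Times: overnight compound exposure at 37 °C.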
eIF4H FP inh retest: recorded beside eIF4H FP inh, whose call it bears; inhibition, %; compound at 20 µM; confirmation average;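 mean of two retest wells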
PABP polyA inh retest: further read-out of PABP polyA inh, marked with its call; inhibition, %; compound at 20 µM; confirmation repeats;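 mean of two retest wells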
MT1-MMP act inh RFP: recorded beside MT1-MMP act inh, whose call it bears; RFP signal change, %; measured here: RFP expression control read;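 0 = vehicle wells; hits needed this value within 50% of zero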
* hit, by the source's call; i = inactive; ? = inconclusive; . = no result given.

SMILES	CSC inhib	HIV Env fusion	eIF4H FP inh	Yeast UUG start	PABP polyA inh	Rce1 inhib	MT1-MMP act inh	MT1-MMP act inh RFP	others
COc1ccc(S(=O)(=O)Nc2c(C)cccc2C)cc1-n1cnnn1	-11	0	-1	-5	-2	i	1	1
CN(C)CCCNC(=O)Cc1ccc(Br)cc1	-11	-36	-4	.	12	i	2	3
NC(=O)C1c2ccccc2Oc2ccccc21	-5	3	2	-18	7	i	-5	1
O=C(CN1CCN(c2ccccc2)CC1)Nc1nnc(-c2ccccc2)s1	8	-29	1	-16	-11	i	2	-3
CC(C)CCn1c(Sc2nc3ccccc3o2)nc2c1c(=O)[nH]c(=O)n2C	20	-9	3	-15	-1	i	-13	-12
Cc1cccc(Cn2c(NC3CCCC3)nc3c2c(=O)[nH]c(=O)n3C)c1	.	8	.	8	.	.	3	3
COc1ccc(-n2c(SCc3cccnc3)nc3c(c2=O)SCC3)cc1OC	.	-6	-6	-17	-9	i	3	6
O=C(O/N=C\c1ccc(N2CCCCC2)c([N+](=O)[O-])c1)c1ccc(Cl)cc1Cl	23	.	-4	.	-6	i	5	1
COc1ccc(NC(=O)COC(=O)c2ccc(C)c(S(=O)(=O)N3CCCCC3)c2)cc1	-2	.	.	-4	.	.	-2	0
CCCCn1nc(C(=O)NNC(=O)c2ccncc2)c2ccccc2c1=O	-5	.	10	-18	-5	i	-1	3
CN(C(=O)c1cc2ccccc2cc1O)C1CCCCC1	-14	18	4	-3	-3	i	-1	-3
CCOC(=O)CNC(=O)CCCCCC(=O)NCC(=O)OCC	-11	.	-2	-11	-5	i	2	5
CC(C)C(OC(=O)c1cccs1)C(=O)NCc1ccco1 (stereo not given)	4	-31	2	-7	7	i	-1	0
CCCSc1nc2c(c(=O)n1CC)SC(C)C2 (stereo not given)	-2	4	8	5	3	i	-3	2
O=C(Cc1cn(Cc2cccc(Cl)c2)c2ccccc12)N1CCCCCC1	8	9	-17	.	1	i	-7	-12
COc1ccc(C(=O)N2CCC(C(=O)O)CC2)cc1	-2	-10	-13	-15	-3	i	0	6
C=CCN(CC=C)S(=O)(=O)c1ccc(NC(=S)NC(=O)c2ccco2)cc1	11	.	3	-20	2	i	2	-10
CCN(CC)C(=O)COc1ccc(-c2nnc(N3CCCCC3)c3ccccc23)cc1	.	-48	-3	-16	0	i	1	-6
CSCCC(NC(=O)c1ccc(Cl)cc1)C(=O)NC(C)(C)C (stereo not given)	-22	-2	1	-24	1	i	8	1
O=C1CS/C(=N/N=C/c2ccccc2)N1c1ccc(O)cc1	6	-2	17	-12	2	.	2	5

Fetched by compound from the entries so far:
SMILES	CSC inhib	HIV Env fusion	eIF4H FP inh	Yeast UUG start	PABP polyA inh	Rce1 inhib	MT1-MMP act inh	MT1-MMP act inh RFP	others
O=C(CN1CCN(c2ccccc2)CC1)Nc1nnc(-c2ccccc2)s1	8	-29	1	-16	-11	i	2	-3
COc1ccc(NC(=O)COC(=O)c2ccc(C)c(S(=O)(=O)N3CCCCC3)c2)cc1	-2	.	.	-4	.	.	-2	0

Next section.
SMILES	CSC inhib	HIV Env fusion	eIF4H FP inh	Yeast UUG start	PABP polyA inh	Rce1 inhib	MT1-MMP act inh	MT1-MMP act inh RFP	others
O=C(NCc1ccco1)NC1CCCCC1	-5	.	3	-15	-11	i	2	2
Cc1ccc(C(=O)COC(=O)c2ccncc2)cc1[N+](=O)[O-]	-6	0	-1	.	59	i	3	3	eIF4H FP inh retest=8;PABP polyA inh retest=40
CC(=O)c1c(C)n(-c2ccc(Br)cc2)c2ccc(O)cc12	-14	12	-8	-20	-4	i	-10	-4
N#CC1=C(N)SC(N)=C(C#N)C1Cc1ccccc1	3	-1	?	-15	?	i	-86	0
COc1nc(NCc2ccc(Cl)cc2)nc(OC)n1	-18	.	7	-25	2	i	5	0
O=c1cc(CSc2ccccc2)nc(-c2ccncc2)[nH]1	-4	4	3	.	-12	i	1	-3
CCOC(=O)CSc1ncc(-c2ccccc2)cn1	-4	28	-9	-25	-4	i	6	4
CC1C2CC(CC1(C)C)N(C(=O)Nc1ccc3nccnc3c1)C2 (stereo not given)	-3	.	0	.	1	i	0	3
O=C(C=Cc1ccco1)N1CCOCC1	.	10	.	-11	.	.	-5	0
COc1ccc(CCNS(=O)(=O)CC23CCC(CC2=O)C3(C)C)cc1OC (stereo not given)	-8	-10	-4	-4	9	i	0	1
COc1ccc(CCNC(=O)COC(=O)Cc2ccccc2[N+](=O)[O-])cc1	12	.	.	-5	.	.	0	0
CCc1nc(SCc2cc(=O)[nH]c3ccccc23)c2c(C)c(C)sc2n1	.	-2	.	-2	.	.	-7	0
CC(=O)NS(=O)(=O)c1ccc(N2C(=O)CC(Sc3nccc(C)n3)C2=O)cc1 (stereo not given)	.	-1	-2	8	-8	i	-4	3
CCOc1cc(N2CCOCC2)c(OCC)cc1NC(=S)NCCCOC	-6	10	11	.	11	i	-2	-2
COc1cccc(OCc2nnc(SCC(=O)OCc3ccccc3)o2)c1	.	-7	-3	-25	-1	i	6	1
O=C(CCN1C(=O)C2C3CCC(C3)C2C1=O)Nc1ccc(Cl)cc1Cl (stereo not given)	.	23	-4	3	2	i	1	-3
COc1ccc(-c2cnn3c(N)c(S(=O)(=O)c4ccccc4)cnc23)cc1	1	15	3	-11	-1	i	8	-1
Cc1ccc(NS(=O)(=O)c2ccc(Cl)c(C(=O)O)c2)cc1S(=O)(=O)N1CCOCC1	-2	11	-8	.	-8	i	2	4
O=C(Oc1c(Cl)cc(Cl)c2cccnc12)c1cccc([N+](=O)[O-])c1	177*	.	11	.	-4	i	7	3
CCCC(O)(CCN1CCOCC1)c1ccc(Br)cc1 (stereo not given)	-4	-5	-6	-5	-12	i	-2	0
CC(C)(C)OC(=O)NCc1ccc(NC(=O)c2nc[nH]c2C(=O)N[C@@H](Cc2ccccc2)C(=O)OCc2ccccc2)cc1	-25	3	7	-21	-8	i	-4	-3
Nc1nc(NCC(=O)O)nc(N2CCCCCC2)c1[N+](=O)[O-]	-9	18	-3	-12	-2	i	3	5
S=c1[nH]nc(-c2cccnc2)n1/N=C/C=C/c1ccco1	-2	-5	96*	.	72	i	-7	-2	eIF4H FP inh retest=112*;PABP polyA inh retest=46
COc1ccc(C(=O)Nc2ccccc2C(=O)NC(Cc2ccc(O)cc2)C(=O)NNC(=O)c2ccccc2)cc1 (stereo not given)	4	2	8	-8	-7	i	2	-2
CC(C)[C@H](NC(=O)N1CC(=O)Nc2ccccc21)C(=O)N[C@@H](Cc1ccccc1)C(=O)O	0	.	-7	2	-6	i	2	2
COC(=O)N1C(=O)[C@@](c2ccccc2)(C2CCCCC2)N1C(=O)OC	32	6	-10	-24	-1	i	-12	-3
CCCCOC(=O)CCc1nc2ccccc2[nH]1	6	-46	-4	-9	9	i	-3	-2
CC1CCN(S(=O)(=O)c2cn(CC(=O)N3CCN(C)CC3)c(=O)c3ccccc23)CC1	.	.	3	.	-5	i	0	2
c1ccc(CNc2ccc3ccccc3n2)nc1	7	.	3	-40	-3	i	6	3
CCCNC(=O)COc1coc(CN2CCN(c3ccccc3F)CC2)cc1=O	-5	8	.	-1	.	i	5	5
C/C(=N/N=C(\C)c1ccccc1O)c1ccccc1O	-14	-52	86	.	66*	i	-7	5	eIF4H FP inh retest=4;PABP polyA inh retest=63*
CCOc1ccc(-c2cnc(NCc3cccc4ccccc34)n2CCOC)cc1	45	3	8	-17	7	i	2	-8
COC(=O)CC1OCC=C2CN3CCC45C6=CC(=O)C(=O)C([N+](=O)[O-])=C6NC4C1C2CC35 (stereo not given)	.	-1	.	-9	.	.	4	1
Cn1ccnc1/C(=N\NC(=O)c1ccc(O)cc1)c1cccc([N+](=O)[O-])c1	-7	7	-8	-29	-9	i	3	7
CC(=O)c1cccc(NC(=O)c2nc(-c3ccccc3)oc2C)c1	10	-4	-3	4	7	i	1	-2
COc1ccc(/C=N/Nc2nc(N3CCCC3)nc(N3CCCC3)n2)cc1O	-18	-26	8	-59	-2	.	2	3
CCOC(=O)c1cc(C(=O)Nc2ccc(C)c(F)c2)nn1C	.	-68	-12	-11	-4	i	1	3
Cc1cc(Cl)ccc1NC(=S)NCc1cccs1	.	.	-3	-11	-8	i	0	-3
CC1CCCCC12NC(=O)N(CC(=O)OCC(=O)c1ccc(OC(F)F)cc1OC(F)F)C2=O (stereo not given)	-9	12	-6	-13	-2	i	-2	1
COc1cc(C(=O)NCC2(c3ccccc3)CCCC2)ccc1OC(C)C	49	-7	-9	1	-4	i	-2	-3
COc1cc(C2NC(=O)NC(C)=C2C(=O)OCc2ccc(C)cc2)cc(OC)c1OC (stereo not given)	20	21	12	-17	-4	i	1	-2
N#Cc1nc(-c2ccc(F)cc2)oc1NCc1ccccc1	5	-16	1	-9	-1	i	6	2
COC(=O)c1cc2n(n1)CCN(Cc1ccccc1Cl)C2=O	11	.	1	.	1	i	-1	4
COC(=O)c1ccc(-n2nc(C(F)(F)F)c3c2-c2ccoc2CC3)cc1	9	-35	9	.	13	.	-4	-6

Structural class, the compounds so far with a Cl atom
SMILES	CSC inhib	HIV Env fusion	eIF4H FP inh	Yeast UUG start	PABP polyA inh	Rce1 inhib	MT1-MMP act inh	MT1-MMP act inh RFP	others
O=C(O/N=C\c1ccc(N2CCCCC2)c([N+](=O)[O-])c1)c1ccc(Cl)cc1Cl	23	.	-4	.	-6	i	5	1
O=C(Cc1cn(Cc2cccc(Cl)c2)c2ccccc12)N1CCCCCC1	8	9	-17	.	1	i	-7	-12
CSCCC(NC(=O)c1ccc(Cl)cc1)C(=O)NC(C)(C)C (stereo not given)	-22	-2	1	-24	1	i	8	1
COc1nc(NCc2ccc(Cl)cc2)nc(OC)n1	-18	.	7	-25	2	i	5	0
O=C(CCN1C(=O)C2C3CCC(C3)C2C1=O)Nc1ccc(Cl)cc1Cl (stereo not given)	.	23	-4	3	2	i	1	-3
Cc1ccc(NS(=O)(=O)c2ccc(Cl)c(C(=O)O)c2)cc1S(=O)(=O)N1CCOCC1	-2	11	-8	.	-8	i	2	4
O=C(Oc1c(Cl)cc(Cl)c2cccnc12)c1cccc([N+](=O)[O-])c1	177*	.	11	.	-4	i	7	3
Cc1cc(Cl)ccc1NC(=S)NCc1cccs1	.	.	-3	-11	-8	i	0	-3
COC(=O)c1cc2n(n1)CCN(Cc1ccccc1Cl)C2=O	11	.	1	.	1	i	-1	4

An excerpt; the hit share may differ from the screen's.
